# Insulin prom inh – TRM-6 insulin promoter activity inhibition; TRM-6 cells (human fetal islet line), insulin promoter-eGFP reporter, imaging; reporter expression induced with tamoxifen; inhibition, % at 2 µM; 130,000 compounds, 0.9% hits; AID 1273;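 active = inhibition above the mean plus 3 SD, with well images judged a real hit on visual review, cut at about 60% in these data, passing the limit was not always enough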
# PKD1 inh – PKD1 (human) kinase inhibition. Q15139. PKD1 kinase fluorescence polarization assay. inhibition, %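 (about 10 µM by stock and volumes)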. 200,000 compounds, 0.056% hits. AID 797;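 active = inhibition of 50% or more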;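 note: controls were vehicle for no effect and a reference inhibitor for full effect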
# RGS16-Gao HTS – regulators of human RGS16-Galphao interaction | O15492+P09471 | bead-based flow cytometry RGS16-Galphao binding, fluorescence; actives lie on both sides | binding response (% of control), % at 10 µM | 220,000 compounds, 0.38% hits | AID 1441;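 active = below 25% or above 175%, edge rows of some plates excepted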;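 note: Galphao activated by GDP with aluminum fluoride before binding; 100% = wells without compound and 0% = beads without RGS; some results beyond the cut were filed as inactive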
# Target sequence (O15492 whole entry, looked up): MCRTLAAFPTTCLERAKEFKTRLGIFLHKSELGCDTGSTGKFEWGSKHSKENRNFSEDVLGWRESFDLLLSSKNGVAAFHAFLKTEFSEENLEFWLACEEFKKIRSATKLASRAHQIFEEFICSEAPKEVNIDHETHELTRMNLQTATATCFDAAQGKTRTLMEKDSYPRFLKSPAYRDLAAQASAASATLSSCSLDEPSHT
# Target sequence (P09471 whole entry, looked up): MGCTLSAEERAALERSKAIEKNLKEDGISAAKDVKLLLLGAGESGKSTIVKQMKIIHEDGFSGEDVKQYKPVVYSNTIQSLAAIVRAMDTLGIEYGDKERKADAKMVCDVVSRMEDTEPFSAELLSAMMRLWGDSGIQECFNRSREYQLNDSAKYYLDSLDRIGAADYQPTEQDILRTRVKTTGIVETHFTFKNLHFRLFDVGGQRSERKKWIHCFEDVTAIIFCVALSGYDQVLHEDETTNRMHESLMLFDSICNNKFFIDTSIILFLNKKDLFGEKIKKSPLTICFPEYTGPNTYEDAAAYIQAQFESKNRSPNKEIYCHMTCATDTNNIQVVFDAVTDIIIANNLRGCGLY
# HSV replic up – HSV replication enhancement | HSV replication augmentation in cells, fold increase | maximum fold increase | 220,000 compounds, 0.005% hits | AID 1956;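 active = peak rise of 1.5-fold or more in the series; tested in PC3 cells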;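 note: first round at 10 µM; read as green reporter fluorescence; hits show the peak of a series up to 25 µM; 1 = signal of infected wells without compound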
# GALR2 ag – agonists of human galanin receptor 2 (GALR2); GALR2-expressing cells, agonist activation read-out; 140,000 compounds, 0.48% hits; activation, %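 (tested at 5 µM)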; O43603;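 active = above mean plus 3 SD of all compounds, about 5% in these data, not always enough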;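 note: 0% = vehicle buffer wells and 100% = reference agonist at full effect; tested in CHO reporter cells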
# Target sequence (O43603 whole entry, looked up): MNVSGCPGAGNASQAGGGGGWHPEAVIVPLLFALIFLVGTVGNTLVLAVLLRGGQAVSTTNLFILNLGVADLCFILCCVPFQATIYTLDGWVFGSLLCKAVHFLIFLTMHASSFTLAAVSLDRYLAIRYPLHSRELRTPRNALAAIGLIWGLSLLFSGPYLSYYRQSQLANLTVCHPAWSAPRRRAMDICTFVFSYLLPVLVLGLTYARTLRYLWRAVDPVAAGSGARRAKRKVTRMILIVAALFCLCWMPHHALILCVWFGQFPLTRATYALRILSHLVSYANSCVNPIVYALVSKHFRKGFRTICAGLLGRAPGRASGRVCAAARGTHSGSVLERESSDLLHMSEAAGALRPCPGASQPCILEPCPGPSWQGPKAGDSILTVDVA
# Insulin prom inh cell count – recorded beside Insulin prom inh, whose call it bears; normalized cell count, %; measured here: cell count, toxicity; reference of the scale not given here;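 cells exposed to compound for 48 h; stained nuclei by imaging scaled within each plate; lower means fewer cells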
# HSV replic up primary fold – recorded beside HSV replic up, whose call it bears; fold increase; compound at 10 µM; measured here: primary screen fold increase 10 uM; tested in PC3 cells;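 GFP signal in the first replicate; 1 = infected wells without compound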
# Starred values were filed as active, the others as inactive; i = inactive; . = no result given.
SMILES,Insulin prom inh,Insulin prom inh cell count,PKD1 inh,RGS16-Gao HTS,HSV replic up,HSV replic up primary fold,GALR2 ag
COCCNC(=O)CNC(=O)c1nn(-c2ccc(OC)c(Cl)c2)c(=O)c2ccccc12,0,122,-6,105,i,0.93,-0.2
O=C1c2ccccc2CC1(Cc1ccccc1)Cc1ccccc1,-216,99,-9,96,i,1,-1.3
CC(C)(C)N1C(=O)c2ccc(C(=O)O)cc2C1=O,64,121,-11,105,i,0.92,-1.7
Cc1cc(C(=O)OCC(=O)Nc2ccc(F)cc2)c(C)o1,7,98,-2,103,i,0.75,-1.5
COc1ccc(Nc2nnc(-c3ccc(O)cc3)c3ccccc23)cc1,11,55,-7,157,i,0.75,.
COc1ccc(OC)c(C2C(C(C)=O)=C(O)C(=O)N2CCC(=O)O)c1 (stereo unspecified),.,.,-1,105,i,0.89,-2.0
CCCC[C@@H]1C[C@H]1[C@@H](NC(=O)c1ccccc1)c1ccccc1C(F)(F)F,19,91,-12,100,i,0.95,-1.8
CCOC(=O)C1(CC2CCCCO2)CCN(S(=O)(=O)c2ccc(OC)cc2)CC1 (stereo unspecified),.,.,-8,112,i,1,.
Cc1noc(C)c1C(=O)Nc1nc(-c2ccccc2Cl)cs1,12,118,8,103,i,0.94,-0.1
Cc1c(C(=O)NCCCN2CCCC2=O)oc2ccc(S(=O)(=O)N3CCOCC3)cc12,-74,149,-11,103,i,0.92,-0.3
CCc1nc(N)c(C#N)c(-c2cccn2C)c1C,-12,133,-6,.,i,0.71,0.7
CCOC(=O)CNC(=O)C1CCCc2c1[nH]c1ccc(Cl)cc21 (stereo unspecified),.,.,-1,101,i,1,.
CCOc1ccc(NC(=S)NN(C)C(=S)Nc2ccc(OCC)cc2)cc1,33,153,-10,103,i,0.86,-0.4
Cc1ccc2nsnc2c1S(=O)(=O)N1CCCC1,.,.,34,103,i,0.98,0.0
Cc1cccc(OCc2nnc(SCC(=O)N3CCN(c4ccccc4)CC3)o2)c1C,40,87,-1,96,i,1.1,-1.1
COc1c(S(=O)(=O)N2CCCC2)ccc(Cl)c1Cl,39,110,3,112,i,0.94,1.0
O=C(CCCCn1c(=O)[nH]c2ccccc2c1=O)NCCC1=CCCCC1,.,.,-4,99,i,0.89,-1.2
CCOc1ccc(C(=O)OCC(=O)Nc2ccc(SC(F)F)cc2)cc1OCC,-14,140,-6,102,i,0.89,-1.7
COc1ccc(OCC(=O)Nc2ccc3c(c2)nc(CN2CCN(C(C)=O)CC2)n3C)cc1,.,.,.,99,i,0.79,.
COc1ccc(C2OC(=O)CC2C(=O)NCc2ccc(C)cc2)cc1OC (stereo unspecified),7,119,-3,94,i,0.96,.
CC(C)(C)c1ccccc1N=Cc1ccc2ccccc2n1,13,57,3,96,i,1,-2.8
COc1ccc(S(=O)(=O)Cc2ccc(C(=O)N3CCN(c4ncccn4)CC3)o2)cc1,.,.,-1,.,.,.,-2.8
COc1ccc(CCNC(=O)c2ccc(Cl)cc2)cc1,-10,171,-2,102,i,0.98,0.0
Cc1cc(C(C)(C)C)nc2[nH]n(-c3ccccc3)c(=O)c12,-55,59,1,107,i,0.91,-0.5
Cc1cc(-c2nnc(CCC(=O)NC(C)c3cccc4ccccc34)o2)no1 (stereo unspecified),.,.,-4,99,i,0.98,.

# A few values from the entries so far:
# `COc1ccc(OC)c(C2C(C(C)=O)=C(O)C(=O)N2CCC(=O)O)c1` (stereo unspecified) | PKD1 inh = -1
# `COc1c(S(=O)(=O)N2CCCC2)ccc(Cl)c1Cl` | Insulin prom inh cell count = 110

# Later entries.
SMILES,Insulin prom inh,Insulin prom inh cell count,PKD1 inh,RGS16-Gao HTS,HSV replic up,HSV replic up primary fold,GALR2 ag
O=C(CSc1nc2nc(-c3cccs3)cc(C(F)(F)F)c2c(=O)[nH]1)NCc1ccco1,-20,112,-23,107,i,0.82,-2.6
Cc1ccc(NC(=O)/C=C/c2ccco2)nc1,-255,8,-12,91,i,0.65,0.4
Cc1cc(C)n(-c2nc(NCCN(C)C)c3c4c(sc3n2)COC(C)(C)C4)n1,.,.,.,98,i,0.88,.
COc1ccc(CCC(=O)O)cc1OC,.,.,.,97,i,1,.
CC(C)Cn1c(SCc2nnc(-c3cccs3)o2)nc(O)cc1=O,-46,131,-8,101,i,1,-1.0
CC(C)C[C@H](NC(=O)OC(C)(C)C)C(=O)N/N=C/c1ccc2nccnc2c1,-26,81,-11,103,i,0.64,-1.2
CCOC(=O)C1=C2N(C)c3ccccc3N2CCC1=O,.,.,-8,102,i,0.9,-0.4
CCCn1c(SC(C(=O)Nc2cc(C)ccc2OC)c2ccccc2)nc2ccccc2c1=O (stereo unspecified),-4,134,-3,101,i,1.1,-0.5
CCc1c(C)c(C#N)c2nc3ccccc3n2c1N1CCN(c2cc(C)ccn2)CC1,3,76,1,114,.,.,-2.9
Cc1cc(C(=O)CN2C(=O)NC3(CCCc4ccccc43)C2=O)c(C)n1C (stereo unspecified),-22,147,0,98,i,0.96,1.1
Fc1cccc(Cc2noc(CN3CCSCC3)n2)c1,.,.,13,94,i,0.88,.
COc1ccc(S(=O)(=O)N(n2c(C)nnc2-n2nc(C)cc2C)S(=O)(=O)c2ccc(OC)cc2)cc1,-44,127,1,85,i,1,1.3
Cn1cc(S(=O)(=O)N2CCN(c3ccc(F)cc3)CC2)c(=O)n(C)c1=O,.,.,-2,100,i,0.72,-0.7
COc1cccc(OCC(=O)NC2CCCCC2)c1,.,.,-9,99,i,0.99,-0.7
CCc1[nH]c(=O)c(C#N)c2c1COC(C)(C)C2,43,127,-2,101,i,0.79,-1.8
CNC(=S)N/N=C/c1cc(Br)cc(Br)c1O,-21,108,5,102,i,0.89,0.3
CCN(CC(=O)NCc1cccs1)c1ccc(S(=O)(=O)N2CCOCC2)cn1,.,.,3,102,i,0.93,-1.2
CCCCN(Cc1cc2cc(OC)ccc2[nH]c1=O)C(=O)c1ccccn1,56,26,-7,101,i,0.86,0.9
COCCNC(=O)C1CCN(C(=O)c2cc3sccc3n2Cc2ccc(F)cc2)CC1,-4,92,-8,104,i,1.1,.
O=[N+]([O-])c1ccc(-n2nnnc2CN2CCCCC2)cc1,43,93,-2,99,i,1.1,.
O=C(Cc1ncc(C(F)(F)F)cc1Cl)NCCc1ccccn1,20,112,-3,97,i,0.99,.
COc1cccc(Oc2c(C)oc3c(CN4CCCCC4)c(O)ccc3c2=O)c1,.,.,.,101,i,0.89,.
Cn1c(=O)c2c(nc(Sc3ncnn3CC(=O)NC3CCCCC3)n2C)n(C)c1=O,.,.,.,103,i,0.83,.
CCOc1ccc(C(CC(=O)O)NC(=O)c2ccco2)cc1 (stereo unspecified),6,123,-3,85,i,0.9,-1.5
C/C(=N\NC(=O)C1(C)NC(C)(C)Cc2ccccc21)c1ccccc1 (stereo unspecified),.,.,-3,100,i,0.97,.

# (continued)
SMILES,Insulin prom inh,Insulin prom inh cell count,PKD1 inh,RGS16-Gao HTS,HSV replic up,HSV replic up primary fold,GALR2 ag
CC(=O)c1ccc(NC(=O)C2CC(=O)Nc3nc4ccccc4n32)cc1 (stereo unspecified),.,.,.,105,i,0.89,.
Cc1ccc(C)[n+](CC(=O)N2CCCCC2)c1,.,.,0,104,i,0.97,.
CCN(CC)CC(=O)c1ccc(-c2ccccc2)cc1,40,107,5,103,i,1.1,-1.8
CC(C)(CO)NCc1ccc(Br)cc1,38,89,-2,101,i,1.1,.
COc1ccc(/C=C/C(=O)CCC(=O)O)cc1,.,.,-6,95,i,0.95,.
CCCCSC(=S)NC1CCS(=O)(=O)C1 (stereo unspecified),-7,104,-5,101,i,0.74,-1.8
COc1ccc(OC)c(S(=O)(=O)n2nnc3ccccc32)c1,-3,142,0,96,i,0.81,0.0
O=C(CNS(=O)(=O)c1ccccc1)Nc1ccc2c(c1)OCO2,0,151,-8,111,i,0.96,.
CCOc1ccccc1N(C(=O)c1ccco1)C(C(=O)NC1CCCC1)c1cccnc1 (stereo unspecified),-9,129,-3,109,i,1.1,-0.1
c1ccc(CCn2nnnc2CN2CCc3ccccc32)cc1,-93,98,3,100,i,0.93,-1.1
CC1(C)Oc2ccc(C(=O)NC3CCCC3)cc2N(CC(=O)NC2CCCC2)C1=O,-62,96,2,95,i,0.88,0.8
COC(=O)c1ccc(-n2c(C)cc(C(=O)COC(=O)CC3Sc4ccccc4NC3=O)c2C)cc1 (stereo unspecified),-12,58,-11,110,i,1.1,-0.5
CCN(CCCNC(=O)CN(C)S(=O)(=O)c1ccc2c(c1)CCC(=O)N2)c1cccc(C)c1,-64,119,6,101,i,0.9,-1.4
O=C1c2ccccc2C(=O)c2[nH]cnc21,.,.,.,98,i,0.81,.
CCN(CC)S(=O)(=O)c1cccc(C(=O)N[C@H](C(=O)NCc2ccc(Cl)cc2)C(C)C)c1,-62,69,-1,78,i,1,-0.1
C/C(=N\N1CCN(Cc2ccc(Cl)cc2)CC1)c1ccc([N+](=O)[O-])cc1,.,.,.,99,i,0.94,.
C=CCc1cccc(CNc2c(C)cc(C)cc2C)c1O,.,.,-6,99,i,0.86,.
CCOc1cc2[nH]c(=O)n(CCC(=O)N3CCN(c4ccccc4OC)CC3)c(=O)c2cc1OCC,.,.,0,101,i,1.2,4.4
CCN(CC(=O)NCc1ccc(F)cc1)c1ccc(S(C)(=O)=O)cc1[N+](=O)[O-],.,.,-5,100,i,1.1,.
O=C(CSc1cccs1)Nc1ccc2ccccc2c1,21,109,-5,87,i,0.79,-2.2
O=C(CCCOc1ccccc1)N1CCN(c2ccccc2)CC1,-30,84,0,111,i,0.84,-0.2
CC(=O)NCC(=O)OCC(=O)c1ccccc1,-3,254,3,106,i,0.81,-1.6
Cc1nc(NNC(=O)c2ccccc2)cc(-c2ccccc2)n1,39,127,2,100,i,1,-1.2
Cc1ccc(C)c(S(=O)(=O)NCc2ccc(C(=O)N3CCN(C)CC3)cc2)c1,10,222,1,103,i,1.1,-3.7
O=C(CSc1nnc(Cc2ccccc2)n1Cc1ccccc1)NCc1ccco1,i,29,3,111,i,0.94,-1.7
O=C(Nc1cccnc1)c1ccc(COCC(F)(F)F)cc1,50,124,-7,101,i,0.88,-1.5
COc1ccc(S(=O)(=O)Nc2ccc(O)c3ccccc23)cc1,15,69,-10,93,i,0.72,-5.5
Cc1ccc2c(c1)c(C)c(C)n2CC(O)Cn1nc(C)cc1C (stereo unspecified),-61,100,-2,132,i,1.1,-2.4
Cc1cc(C)cc(NC(=O)/C(C#N)=C/c2cn(CC(=O)NCc3ccco3)c3ccccc23)c1,.,.,2,101,i,0.65,52*

# Pulled one by one from above (2):
SMILES,Insulin prom inh,Insulin prom inh cell count,PKD1 inh,RGS16-Gao HTS,HSV replic up,HSV replic up primary fold,GALR2 ag
C/C(=N\NC(=O)C1(C)NC(C)(C)Cc2ccccc21)c1ccccc1 (stereo unspecified),.,.,-3,100,i,0.97,.
Cc1ccc2c(c1)c(C)c(C)n2CC(O)Cn1nc(C)cc1C (stereo unspecified),-61,100,-2,132,i,1.1,-2.4

# Compound profiles, as listed above.
# Results for CCCCSC(=S)NC1CCS(=O)(=O)C1 (stereo unspecified) : Insulin prom inh: -7; Insulin prom inh cell count: 104; PKD1 inh: -5; RGS16-Gao HTS: 101; HSV replic up: i; HSV replic up primary fold: 0.74; GALR2 ag: -1.8
# Results for Cc1ccc(C)c(S(=O)(=O)NCc2ccc(C(=O)N3CCN(C)CC3)cc2)c1 : Insulin prom inh: 10; Insulin prom inh cell count: 222; PKD1 inh: 1; RGS16-Gao HTS: 103; HSV replic up: i; HSV replic up primary fold: 1.1; GALR2 ag: -3.7
# Results for O=C(Nc1cccnc1)c1ccc(COCC(F)(F)F)cc1 : Insulin prom inh: 50; Insulin prom inh cell count: 124; PKD1 inh: -7; RGS16-Gao HTS: 101; HSV replic up: i; HSV replic up primary fold: 0.88; GALR2 ag: -1.5

# GALR2 ag, what is marked active above.
SMILES	PKD1 inh	RGS16-Gao HTS	HSV replic up	HSV replic up primary fold	GALR2 ag
Cc1cc(C)cc(NC(=O)/C(C#N)=C/c2cn(CC(=O)NCc3ccco3)c3ccccc23)c1	2	101	i	0.65	52*
